Compound activity deposited in PubChem by National Center for Advancing Translational Sciences (NCATS).
VDR inh: Inhibitors of the vitamin D receptor (VDR): qHTS; 400,000 tested, 0.93% active; AID 504847, 2011; Potency, µM, inactives show max response, negative = inhibition, usual class: inhibitors; Vitamin D3 receptor (Homo sapiens), P11473; VDR-SRC2-3 peptide fluorescence polarization, 2 h; active means well fitted inhibition curve with a large enough effect; inconclusive means small, poorly fitted or top-dose-only effect, or another doubt; inactive means no such curve, though single readings can be large or run the other way; further: series mostly up to about 120 µM
Target sequence (P11473 whole entry, looked up): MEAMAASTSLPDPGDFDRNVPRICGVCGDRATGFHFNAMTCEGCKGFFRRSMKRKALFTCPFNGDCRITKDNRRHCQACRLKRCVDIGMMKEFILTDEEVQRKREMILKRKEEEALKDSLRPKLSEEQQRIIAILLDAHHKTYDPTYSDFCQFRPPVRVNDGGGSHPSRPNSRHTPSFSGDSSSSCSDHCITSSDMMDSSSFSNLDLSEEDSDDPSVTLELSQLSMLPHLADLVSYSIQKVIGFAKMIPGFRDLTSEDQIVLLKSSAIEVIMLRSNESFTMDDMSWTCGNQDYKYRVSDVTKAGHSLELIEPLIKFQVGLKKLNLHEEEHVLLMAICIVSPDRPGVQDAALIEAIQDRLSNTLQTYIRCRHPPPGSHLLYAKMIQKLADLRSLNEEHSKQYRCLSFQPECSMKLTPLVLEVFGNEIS
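Fluorescence polarization assay of small-molecule disruption of VDR binding to coregulator peptide SRC2-3. Compounds and controls pin-transferred, then read after 2 h incubation at ambient room temperature.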
Numbers without * were called inactive; & = joins results of further samples. On the % scale 0 is the no-effect control and ±100 the full control effect; potency means the concentration at half of the fitted maximal effect. The list is partial; rates above refer to the full screens.

For Cc1ccc2nc(S(=O)(=O)O)[nH]c2c1 the results were VDR inh -3%.
N#CN=c1snc(-c2ccccc2Cl)n1-c1ccccc1Cl was read as VDR inh -11%.
N#Cc1c(N)c(C(=O)c2ccc(Br)cc2)n2c1CCC2 was read as VDR inh -5%.
Screening O=C(CN1C(=O)c2cccnc2Sc2ccccc21)Nc1cc(F)ccc1F returned VDR inh -12%.
Screening O=C(NCCc1ccccc1)c1n[nH]c2ccccc12 returned VDR inh -11%.
For Brc1cccc(-c2cnco2)c1 the results were VDR inh -11%.
COc1cccc(CN2CC(O)=C(c3nc(-c4ccc(Cl)cc4)cs3)C2=N)c1 was read as VDR inh 14%.
Screening CC(C)NC(=O)c1nn(C)c2c1CS(=O)(=O)c1ccccc1-2 returned VDR inh 16%.
Screening CCc1nn(CC(=O)NCCCN2CCOCC2)c(=O)c2cc3c(OC)cccc3n12 returned VDR inh 14%.
Screening COc1ccc(-n2nnc3c(SCC(=O)Nc4ccccc4F)ncnc32)cc1 returned VDR inh 13%.
For CCCS(=O)(=O)c1nc(S(=O)(=O)c2ccc(C)cc2)c(N2CCc3ccccc3C2)s1 the results were VDR inh 1%.
CCCCSc1nc2sc3c(c2c(=O)n1-c1ccc(OC)cc1)CCN(C)C3 was read as VDR inh -1%.
For COc1cccc(N2CC(NC(=O)c3ccc4ccccc4c3)CC2=O)c1 (centres undefined) the results were VDR inh -2%.
For CN(c1cccc(NC(=O)CN(c2ccc(F)cc2)S(C)(=O)=O)c1)S(C)(=O)=O the results were VDR inh -2%.
CC(C)[C@H](N)c1nnc(SCC(=O)c2ccc(Cl)cc2)o1 was read as VDR inh -17%.

Brought forward from above: three compounds, followed by the next part.
For COc1cccc(N2CC(NC(=O)c3ccc4ccccc4c3)CC2=O)c1 (centres undefined) the results were VDR inh -2%.
For CN(c1cccc(NC(=O)CN(c2ccc(F)cc2)S(C)(=O)=O)c1)S(C)(=O)=O the results were VDR inh -2%.
CC(C)[C@H](N)c1nnc(SCC(=O)c2ccc(Cl)cc2)o1 was read as VDR inh -17%.
Screening Nc1nc(SC2c3cccc4cccc(c34)C2NS(=O)(=O)c2ccccc2)n[nH]1 (centres undefined) returned VDR inh -5%.
N[C@H](C(=O)O)c1ccc(C(=O)O)cc1 was read as VDR inh 5%&-6%.
For O=C(COC(=O)c1ccc(Cl)c(S(=O)(=O)N2CCCCC2)c1)NCc1ccco1 the results were VDR inh 13%.
For Cc1ccc2nc(N3CCN(C(=O)c4ccco4)CC3)sc2c1 the results were VDR inh 5%.
Screening CCOCCc1nnc(NC(=O)C2CC(=O)N(CCc3ccc(F)cc3)C2)s1 (centres undefined) returned VDR inh -2%.
For CCNC(=S)Nc1ccc(C)c(S(=O)(=O)Nc2ccccc2OC)c1 the results were VDR inh -2%.
`Cc1nnsc1NC(=O)OCC(C)C` gave VDR inh 2%.
Cc1coc2cc3oc(=O)c(CCC(=O)NCCCn4ccnc4)c(C)c3cc12 was read as VDR inh -4%.
For Cc1c(CCOC(=O)c2ccc(Cl)cc2Cl)sc[n+]1CC(=O)c1ccccc1 the results were VDR inh -2%.
Cc1ccc2c(C)c(C(=O)NCC(c3ccc(Cl)cc3)N3CCOCC3)oc2c1 (centres undefined) was read as VDR inh 1%.
C=CCc1ccc(OCC(O)CN2CCN(c3ccccc3)CC2)c(OC)c1 (centres undefined) was read as VDR inh -15%.
`COc1ccc(C(=O)Nc2cc3c(cc2N2CCCC2)n(C)c(=O)c(=O)n3C)cc1OC` gave VDR inh -3%.
For Cn1c(=O)c2c(nc(SCC(=O)Nc3ccc(OC(F)(F)F)cc3)n2Cc2cccc(C(F)(F)F)c2)n(C)c1=O the results were VDR inh -1%.
`Cc1cc(NC(=O)CSc2nnc(C(F)(F)F)n2C)no1` gave VDR inh -14%.
`O=C(CN1C(=O)NC2(CCOc3ccccc32)C1=O)NCCc1ccccc1` (centres undefined) gave VDR inh 10%.

4 records drawn at random from those above, as already listed:
N#CN=c1snc(-c2ccccc2Cl)n1-c1ccccc1Cl was read as VDR inh -11%.
For Cc1c(CCOC(=O)c2ccc(Cl)cc2Cl)sc[n+]1CC(=O)c1ccccc1 the results were VDR inh -2%.
For Cn1c(=O)c2c(nc(SCC(=O)Nc3ccc(OC(F)(F)F)cc3)n2Cc2cccc(C(F)(F)F)c2)n(C)c1=O the results were VDR inh -1%.
COc1cccc(CN2CC(O)=C(c3nc(-c4ccc(Cl)cc4)cs3)C2=N)c1 was read as VDR inh 14%.

Later entries
`CC(NC(=O)NCC1CCCO1)(C(F)(F)F)C(F)(F)F` (centres undefined) gave VDR inh 9%.
For C=CCN(CC=C)c1cnn(-c2nc3ccccc3[nH]2)c(=O)c1Cl the results were VDR inh -5%.
`CC(C)(C)OC(=O)C1C(=O)CC(C)(O)C(C(=O)OC(C)(C)C)C1c1ccco1` (centres undefined) gave VDR inh 9%.
Screening CCOc1ccc(-c2nc(=S)[nH][nH]2)cc1 returned VDR inh -9%.
CC(=O)Nc1ccccc1NC(=O)c1ccc(C)c(C)c1 was read as VDR inh 3%.
For O=C1NC(=S)N/C1=C/c1cccc([N+](=O)[O-])c1O the results were VDR inh -1%.
For Cc1ccc(CNC(=O)COC(=O)C2CC2)cc1 the results were VDR inh 10%.
Screening Cc1cc(NC(=O)COC(=O)Cn2[nH]c(=O)c3ccccc3c2=O)c([N+](=O)[O-])cc1C returned VDR inh -2%.
Screening CCOc1ccc(OCCC(=O)N(CCOC)c2c(N)n(Cc3ccccc3)c(=O)[nH]c2=O)cc1 returned VDR inh -5%.
`CS(=O)(=O)N1CCN(c2ccc([N+](=O)[O-])c(NCCN3CCOCC3)c2)CC1` gave VDR inh -4%.
CCOC(=O)c1sc2nc(SCC(=O)N(CC)CC)n(CCCN3CCCC3=O)c(=O)c2c1C was read as VDR inh 12%.
CN(C)C(=O)c1cc([N+](=O)[O-])cc([N+](=O)[O-])c1N(C)C was read as VDR inh 1%.
O=C(O)CNC(=O)c1ccc(N2CCOCC2)cc1[N+](=O)[O-] was read as VDR inh -1%.
COc1ccc(C(=O)OCCc2ccc(O)cc2)cc1 was read as VDR inh 3%.
`CN(c1ccc(O)cc1)c1nc(-c2ccccc2)cs1` gave VDR inh 4%.
`COC(=O)C1CCN(C(=O)CN2C(=O)NC(CC(C)C)C2=O)CC1` (centres undefined) gave VDR inh -26%.
`Cc1ccc(S(=O)(=O)N2CCc3ccccc3CC2)cc1` gave VDR inh -7%.
Screening COc1cccc(C(=O)Nc2ccc(NC(=O)c3ccc(C(C)(C)C)cc3)cc2)c1 returned VDR inh -8%.
For CCC(C(=O)NCCCN1CC(C)CC(C)C1)n1nc(C)c2sc3ccccc3c2c1=O (centres undefined) the results were VDR inh -23%.
Screening CCOC(=O)C1CCCN(C(=O)c2ccc(C)c(NC(=O)C3=C(C)OCCS3)c2)C1 (centres undefined) returned VDR inh -4%.
Screening C=CCN(c1ccc(OC)cc1)S(=O)(=O)c1ccc(Cl)c(C(=O)OCC(=O)c2c(N)n(C)c(=O)n(C)c2=O)c1 returned VDR inh 0%.
For O=C(NCc1ccccn1)C1CCN(S(=O)(=O)N2CCCCC2)CC1 the results were VDR inh -3%.
For N#CC1(NC(=O)COC(=O)c2nccnc2N)CCCCC1 the results were VDR inh -18%.
`CC(=O)Nc1ccc(S(=O)(=O)N2CCN(C(=O)c3ncoc3-c3ccccc3F)CC2)cc1` gave VDR inh -23%.
`CCN1/C(=C2\OC(=S)N(C)C2=O)Sc2ccccc21` gave VDR inh -3%.
`Cc1ccc(Cl)cc1N1CCN(S(C)(=O)=O)CC1` gave VDR inh -16%.
Cn1c(=O)cc(OCCCC(=O)Nc2ccc3c(c2)OCCO3)c2ccccc21 was read as VDR inh 10%.
`CC(=O)Nc1cccc(C(=O)OCC(=O)NC(=O)Cc2ccccc2)c1` gave VDR inh -9%.
Screening Fc1cccc(Nc2nc(N3CCOCC3)nc(N3CCOCC3)n2)c1 returned VDR inh -19%.
Screening Cc1cc(F)ccc1NC(=O)C1CCCN(c2nnc(-n3c(C)ccc3C)s2)C1 (centres undefined) returned VDR inh 10%.
Screening Cc1cc(C)cc(OCC(=O)N/N=C/c2ccccn2)c1 returned VDR inh 3%.
Cc1nn(-c2ccc(F)cc2)c(C)c1CN1CCN(CCC(C)C)C(CCO)C1 (centres undefined) was read as VDR inh 12%.
`C#CCSc1nc(-c2ccccc2)cc(-c2ccccc2)c1C#N` gave VDR inh -11%.
`COc1ccc(-c2nnn(CC(=O)Nc3sc4c(c3C#N)CCCC4)n2)cc1` gave VDR inh -2%.
Screening Cc1ccc(CNC(=O)CSc2nc3c(sc4ccccc43)c(=O)n2CCCC(=O)NCCO)cc1 returned VDR inh 7%.
`CCOCCc1nn2c(=O)cc(CSCC(=O)Nc3cccc(C)c3C)nc2s1` gave VDR inh -13%.
Screening CCOc1ccc(NC(=O)CN(C)C(=O)c2c(C)nn(-c3ccc(F)cc3)c2Cl)cc1OCC returned VDR inh 1%.
Cc1cccc(N(Cc2cc3ccc(C)cc3[nH]c2=O)C(=O)c2ccco2)c1 was read as VDR inh inconclusive.
Screening CC1CC(C)CN(C(=O)CCC(=O)Nc2nnc(C3CCCCC3)s2)C1 (centres undefined) returned VDR inh 5%.
COCC(C)N=C1NN=C(c2ccc(NC(C)=O)cc2)CS1 (centres undefined) was read as VDR inh 0%.
For O=c1oc2ccccc2cc1-c1csc(Cc2nc(-c3ccc(Br)cc3)cs2)n1 the results were VDR inh 28%.
Cc1ccc(Nc2cc(C)nc(-c3ccccc3O)n2)cc1 was read as VDR inh 7%.
`O=C(NCc1ccccc1)c1cccc(COc2cccc(Cl)c2)c1` gave VDR inh -8%.
Screening O=C(OCc1ccccc1)c1ccc(-c2nnn(Cc3ccccc3F)n2)cc1 returned VDR inh -4%.
For CC(=O)Nc1ccc(NC(=O)CSc2cn(CC(=O)N3CCOCC3)c3ccccc23)cc1 the results were VDR inh -4%.

The closing 3 entries of the part before open the next one.
`O=C(NCc1ccccc1)c1cccc(COc2cccc(Cl)c2)c1` gave VDR inh -8%.
Screening O=C(OCc1ccccc1)c1ccc(-c2nnn(Cc3ccccc3F)n2)cc1 returned VDR inh -4%.
For CC(=O)Nc1ccc(NC(=O)CSc2cn(CC(=O)N3CCOCC3)c3ccccc23)cc1 the results were VDR inh -4%.
For CCn1cnc2c1c(=O)n(CC(=O)O)c(=O)n2Cc1ccccc1 the results were VDR inh 1%.
For CCN1CCCC1CNC(=O)C1CCN(C(=O)c2cc3sccc3n2Cc2ccc(F)cc2)CC1 (centres undefined) the results were VDR inh 20%.
Screening CCCCCCN1C2=NCCCN2c2ccccc21 returned VDR inh 17%.
Cc1ccc(-n2nnnc2SCC(=O)c2cc(C)n(-c3cc(C)on3)c2C)c(C)c1 was read as VDR inh 17%.
Screening O=C1NCCn2nc3ccccc3c21 returned VDR inh -1%.
For CSCCC(NC(=O)c1cc([N+](=O)[O-])cc([N+](=O)[O-])c1)c1nc2ccccc2[nH]1 (centres undefined) the results were VDR inh -23%.
Screening O=C1c2ccccc2C(=O)N1CCCc1nc2ccccc2c(=O)n1-c1cccnc1 returned VDR inh -2%.
For CC[C@]12c3[nH]c4cc(-c5ccco5)ccc4c3CCN1C(=O)[C@@H](CC(=O)NCc1cccc(C(F)(F)F)c1)C[C@@H]2C(=O)N1CCN(C(=O)c2ccco2)CC1 the results were VDR inh -20%.
Cc1nnc(NC(=O)CSc2nc3c(c(=O)n(C)c(=O)n3C)n2C(C)C)s1 was read as VDR inh -8%.
For CCC(=O)Nc1c2c(nn1-c1ccc(OC)cc1)CS(=O)C2 (centres undefined) the results were VDR inh 4%.
For Cc1ccc(NC(=S)NC(=O)c2ccc(-c3ccccc3)cc2)cc1 the results were VDR inh -24%.
Screening CCC(C)(C)NC(=O)CN(C(=O)C(=O)Nc1ccc2c(c1)OCCO2)C1CC1 returned VDR inh -3%.
COc1ccc(CNC(=S)Nc2cc(OC)ccc2OC)cc1 was read as VDR inh -11%.
CC(C)c1ccc(OCCCN2CCCC2)cc1 was read as VDR inh 26%.
Screening Cc1ccnc(NC(=O)c2ccc([N+](=O)[O-])o2)c1 returned VDR inh -2%.
For COc1cc2nc(NC(=O)c3ccco3)sc(=O)c2cc1OC the results were VDR inh 3%.
Screening COC(=O)c1sc2nc(CN3CCN(c4ccc(OC)cc4)CC3)[nH]c(=O)c2c1C returned VDR inh -10%.
O=C(Nc1ccc(F)cc1F)N1CCN(C/C=C/c2ccccc2)CC1 was read as VDR inh 0%.
Screening COc1ccc(C(=O)CSc2nc3[nH]ncc3c(=O)[nH]2)cc1 returned VDR inh 2%.
COc1ccc(NC(=O)CN(C)C(=O)CNC(=O)C2CCCCC2)cc1 was read as VDR inh 8%.
Screening CC1(C)C2CC=C(/C=N/NC(=O)c3ccc(O)cc3)C1C2 (centres undefined) returned VDR inh -6%.
`O=C(CCC(=O)Nc1ccccc1Cl)N/N=C/c1ccccc1` gave VDR inh -22%.
`Cc1cc(=O)n2[nH]cc(C(=O)O)c2n1` gave VDR inh -10%.
For Cn1nccc1C(=O)N1CCCC(C(=O)c2cccc3ccccc23)C1 (centres undefined) the results were VDR inh -16%.
Screening COc1ccc(NC(=O)/C=C/c2cc(Br)ccc2OC)cc1 returned VDR inh -11%.
O=C(NCC1CCCO1)c1cc(C(=O)c2ccc(Cl)cc2Cl)c[nH]1 (centres undefined) was read as VDR inh -1%.
`CC1CCN(CCc2nc3cc(NC(=O)COc4ccc([N+](=O)[O-])cc4)ccc3n2C)CC1` gave VDR inh 13%.
COC(=O)Cc1c(C)nc2nc(-c3ccco3)[nH]n2c1=O was read as VDR inh 3%.
CCN(CC)CCCNC(=O)c1ccc(S(=O)(=O)Nc2ccc(C)c(C)c2)cc1 was read as VDR inh -1%.
`CC(=O)Oc1ccccc1/C=C/c1ccc2ccccc2[n+]1C` gave VDR inh -16%.
Screening COc1ccc([N+](=O)[O-])cc1NC(=O)CCSCCc1ccccn1 returned VDR inh 7%.
Screening O=c1cc(-c2ccccc2)nc(SCc2nc(-c3ccccc3Cl)no2)[nH]1 returned VDR inh -14%.
O=C(NCc1nc(-c2ccccc2)no1)c1ccco1 was read as VDR inh 8%.
